KCNQ2 inh = KCNQ2 channel blockers in CHO-K1 cells – cell-based, FluxOR thallium flux, B-score, primary screen (AID 2156). B-score at 10 µM. 20 min; stronger effect = lower value; only compounds with negative scores are shown here; some inactives read as strong as hits. actives 1.1% (n = 310,000);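 active = fluorescence ratio B-score at most minus 3 library SDs, with starting brightness B-score within 2 library SDs, cut at about -5.5 in these data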
Target sequence (O88943 whole entry, looked up): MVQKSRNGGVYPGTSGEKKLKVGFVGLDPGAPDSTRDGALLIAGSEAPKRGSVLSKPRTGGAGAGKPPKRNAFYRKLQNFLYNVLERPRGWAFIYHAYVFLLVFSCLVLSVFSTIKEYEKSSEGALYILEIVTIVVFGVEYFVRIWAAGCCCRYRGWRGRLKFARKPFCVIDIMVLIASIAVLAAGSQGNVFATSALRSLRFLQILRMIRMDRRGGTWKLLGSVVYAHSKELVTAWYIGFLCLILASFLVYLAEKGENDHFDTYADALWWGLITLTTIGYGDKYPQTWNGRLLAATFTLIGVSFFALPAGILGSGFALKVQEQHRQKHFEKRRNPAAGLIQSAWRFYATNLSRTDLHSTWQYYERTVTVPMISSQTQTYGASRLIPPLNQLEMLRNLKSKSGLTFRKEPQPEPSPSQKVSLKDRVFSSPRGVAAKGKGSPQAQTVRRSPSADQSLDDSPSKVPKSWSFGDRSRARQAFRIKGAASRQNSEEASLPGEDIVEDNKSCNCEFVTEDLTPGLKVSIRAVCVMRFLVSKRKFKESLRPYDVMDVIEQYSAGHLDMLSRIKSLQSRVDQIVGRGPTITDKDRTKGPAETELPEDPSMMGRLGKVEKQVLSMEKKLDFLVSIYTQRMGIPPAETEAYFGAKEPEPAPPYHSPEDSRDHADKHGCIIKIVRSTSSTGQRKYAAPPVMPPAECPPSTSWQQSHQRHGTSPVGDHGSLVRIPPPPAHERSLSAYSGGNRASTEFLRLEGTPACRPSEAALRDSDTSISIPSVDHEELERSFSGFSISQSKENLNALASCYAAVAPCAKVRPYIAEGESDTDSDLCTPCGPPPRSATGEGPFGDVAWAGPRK
KCNQ2 inh baseline = recorded beside KCNQ2 inh, whose call it bears; B-score; measured here: initial fluorescence intensity artifact check;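 brightness before thallium and not channel activity; 0 = typical well and far values either way flag optical interference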
* = called active by the depositor; i = inactive; & = joins results of further samples. Some of the compounds tested, so the mix of outcomes need not match the whole.

No.	SMILES	KCNQ2 inh	KCNQ2 inh baseline
1	CN1CCN(C(=O)/C=C/c2ccccc2)CC1	i	0.01
2	CCCN(CCC)C(=O)c1ccc2c(c1)N(CC)C(=O)c1ccccc1S2(=O)=O	i	-0.52
3	CC(=O)N[C@H]1[C@H]([C@H](O)[C@H](O)CO)OC(C(=O)O)=C[C@@H]1O	i	-0.84
4	Cc1ccc(S(=O)(=O)N2CCC(c3nnc(SCCN4CCCC4)n3C)CC2)cc1	i	-0.05
5	Cc1ccc(C(=O)Nc2ccc(C(=O)N3CCCCC3C)cc2)cc1 (stereo not given)	i	-0.12
6	C=C1CCN([C@H](C(=O)NCc2ccc(OC)cc2)C(C)C)S(=O)(=O)c2ccccc21	i	0.28
7	COc1ccc(C2CC(=O)C(C=NCC(C)C)=C(O)C2)cc1 (stereo not given)	i	-0.79
8	Cc1c(Cl)cccc1NC(=O)NCc1cccnc1	i	0.96
9	O=C(NCCO)c1ccc2[nH]c3ccccc3c2c1	i	-0.63
10	O=C(NCC(c1ccco1)N1CCc2ccccc2C1)C(=O)Nc1ccccc1F (stereo not given)	-6.98*	-0.69*
11	C=CCOC(=O)C1=C(C)N=C2SCCC(=O)N2C1/C=C/c1ccccc1 (stereo not given)	i	1.24
12	Cc1ccc(C(=O)n2c3ccccc3c3ccccc32)cc1	i	1.23
13	O=C(CCc1ccccc1)c1ccc2c(c1)OCCCO2	i	-0.54
14	CCCCc1cc(=O)oc2cc(OCC(=O)N(CC)CC)c(Cl)cc12	i	0.85
15	CC1(C)CC(C)(c2ccc(O)cc2O)N(c2ccc3ccccc3c2)C(=S)N1 (stereo not given)	i	-0.37
16	O=C(CN1CCOCC1)NNC(=S)Nc1ccccc1	i	-0.26
17	O=C(Cc1ccccc1)NC(=S)Nc1cccc(C(F)(F)F)c1	i	-1.02
18	O=C1C2C3C=CC(C3)C2C(=O)N1c1cccnc1 (stereo not given)	i	-0.89
19	CCCNCC1C(Oc2ccc(Cl)cc2Cl)C(=O)N1c1cccc(C)c1C (stereo not given)	i	-0.21
20	CC(=O)c1ccc(N2CCN(S(=O)(=O)c3cc(-c4cc(C)no4)ccc3C(C)C)CC2)cc1	i	-0.77
21	Cc1ccc(S(=O)(=O)Nc2cccc(-c3cn4ccsc4n3)c2)cc1	i	-0.79
22	CCOc1ccc(S(=O)(=O)N(C)C2CCCCC2)cc1	i	-0.24
23	Cc1cc(OCCN2CCCC2)ccc1C(C)C	i	0.4
24	CC(C)CCOCC(O)CCC(=O)NNC(=S)Nc1ccccc1 (stereo not given)	i	0.29

Part of the list above in order of molecular weight, rising.
No.	SMILES	KCNQ2 inh	KCNQ2 inh baseline
23	Cc1cc(OCCN2CCCC2)ccc1C(C)C	i	0.4
13	O=C(CCc1ccccc1)c1ccc2c(c1)OCCCO2	i	-0.54
14	CCCCc1cc(=O)oc2cc(OCC(=O)N(CC)CC)c(Cl)cc12	i	0.85

The results go on:
No.	SMILES	KCNQ2 inh	KCNQ2 inh baseline
25	Cc1nc(-c2ccc(S(=O)(=O)Nc3cccc(Cl)c3)cc2)co1	i	0.18
26	CCOC(=O)c1cc2c(=O)n3ccccc3nc2n(Cc2ccco2)c1=NC(=O)c1cccc(OC)c1	i	2.61
27	CCOc1ccc(N(Cc2ccc(C(=O)O)cc2)S(=O)(=O)c2ccc(C)cc2)cc1	i	0.1
28	CCC(=O)Nc1ccc(C(=O)NNC(=O)c2ccccc2)cc1	i	1.77
29	O=C(NC1CCCC1)C1c2ccccc2C(=O)N1CCCN1CCOCC1 (stereo not given)	i	-0.86
30	Cc1cc(=O)[nH]c(N/N=C/c2ccccc2C(F)(F)F)n1	i	1.01
31	CCc1ccc(-c2csc(-c3c[nH]c4ccccc34)n2)cc1	i	-1.97
32	COc1ccc(/C=C/c2nc(-c3ccccc3O)n(-c3ccccc3)n2)cc1	i	0.02
33	COc1cc2nc(N3CCN(C(=O)c4ccco4)CC3)nc(N)c2cc1OC	i	-0.11&0.11
34	CCN(C(=O)c1nn(-c2ccc(OC)cc2)c(=O)c2c1c1ccccc1n2C)c1ccc(OC)cc1	i	1.56
35	O=C(O)c1ccc(S(=O)(=O)c2ccc3c(c2)C(=O)N(NC(=O)c2ccc(O)cc2)C3=O)cc1	i	0.05
36	CCNC(=O)CCc1nc(-c2ccc(C)cc2)no1	i	0.48
37	O=C1CC(C(=O)N(CC2CCCO2)C(C(=O)NC2CCCCC2)c2ccncc2)CS1 (stereo not given)	i	0.82
38	Cc1ccc(Nc2nc(N)nc(CN3CCN(c4ccccc4)CC3)n2)cc1Cl	i	1.77
39	O=C(CCN1C(=O)c2ccccc2S1(=O)=O)Nc1cc(Cl)ccc1Cl	i	-2.63
40	O=C(/C=C/C(=O)NCc1cccs1)NCc1cccs1	i	-0.29
41	O=C(Cn1cnc2ccccc21)Nc1ccc(SC(F)F)cc1	i	-0.07
42	CC(=O)c1ccccc1OCC(O)CN1CCN(C(c2ccccc2)c2ccccc2)CC1 (stereo not given)	i	-0.88
43	NS(=O)(=O)c1ccc(NC(=O)CSc2nc(Nc3ccccc3)nc(N3CCOCC3)n2)cc1	i	-0.01
44	Cc1c(CCOC(=O)C23CC4CC(CC(C4)C2)C3)sc[n+]1Cc1ccccc1	i	0.25
45	O=C(CSc1n[nH]c(-c2ccccn2)n1)Nc1ccc(F)cc1	i	2.09
46	Cc1ccc2nc(NCC(=O)O)nc(-c3ccccc3)c2c1	i	-0.65
47	COc1cc(-c2noc(C)c2C#Cc2nccn2C)cc(OC)c1OC	i	-0.02
48	Cc1ccc(NC(=O)NC(=S)NC(=O)c2ccccc2)cc1	i	2.33

Two of these compounds, reformatted:
(45) O=C(CSc1n[nH]c(-c2ccccn2)n1)Nc1ccc(F)cc1
(46) Cc1ccc2nc(NCC(=O)O)nc(-c3ccccc3)c2c1

Assay by compound,45,46
KCNQ2 inh,i,i
KCNQ2 inh baseline,2.09,-0.65

(list continues)
No.	SMILES	KCNQ2 inh	KCNQ2 inh baseline
49	CCN(CC)S(=O)(=O)c1ccc2oc(C(=O)N3CCc4ccccc4C3)c(C)c2c1	i	0.08
50	O=C(CN(C(=O)c1ccccc1Cl)C1CCCCC1)Nc1ccc(Cl)c([N+](=O)[O-])c1	i	-0.62
51	O=C(Nc1nnc(SCc2ccc(F)cc2)s1)C1Cc2ccccc2CN1C(=O)c1ccco1 (stereo not given)	i	-0.74
52	CCCCCn1c(SCCOCC)nc2c1c(=O)[nH]c(=O)n2C	i	0.1
53	CCOC(=O)c1cc(-c2ccc(C)cc2)n(CC(=O)NCc2ccco2)c1C	i	-0.65
54	c1cncc(C2Nc3ccccc3-c3nc4ccccc4n32)c1 (stereo not given)	i	-0.42
55	Cc1noc(C)c1COc1ccc(C(=O)O)cc1	i	-0.38
56	COc1ccc(CCNC(=O)c2cc(-c3ccco3)nc3ccccc23)cc1	-8.16*	-2.06*
57	COc1ccccc1OCCNC(=O)c1c(-c2ccccc2Cl)noc1C	i	1.74
58	CCCCNC(=O)Cc1c(OC)ccc2cc(Br)ccc12	i	0.01
59	O=C(/C=C/c1cccc2ccccc12)N1CCOCC1	i	-0.32
60	O=C(NCc1ccccn1)c1cc(-c2ccccc2Cl)on1	i	-0.38
61	Cc1ccccc1CN1CCN(CC(=O)NCc2ccc3c(c2)OCO3)C1=O	i	1.3
62	Cn1ncc(Cl)c1C(=O)NC1CCCC1	i	-1.57
63	CCN1CCCC1CNC(=O)C(=O)Nc1ccccc1 (stereo not given)	i	0.45
64	O=S(=O)(c1ccc2nc(COc3ccccc3)[nH]c2c1)N1CCOCC1	i	1.32
65	COc1cccc(-c2nnc(-c3ccc(C(F)(F)F)cc3)o2)c1OC	i	-0.68
66	Cc1cccc(C)c1OCC(O)CN1CCCCC1 (stereo not given)	i	-1.28
67	Cc1ccccc1C(=O)N/N=C1/SCC(=O)N1Cc1ccccc1	i	0.05
68	CSCC[C@H](NC(=O)[C@@H]1Cc2c([nH]c3ccccc23)C2c3ccccc3C(=O)N21)C(=O)NCC1CCCO1 (stereo not given in full)	i	0.66
69	COc1ccccc1NC(=O)C/C(C)=N/NC(=O)C12CC3CC(CC(C3)C1)C2	i	-1.02
70	O=C(NCc1ccccc1Cl)c1nnc(CS(=O)(=O)c2ccccc2)o1	i	0.11
71	CN1C(=O)N(C)C(c2cccc([N+](=O)[O-])c2)C2=C1CCCC2=O (stereo not given)	i	-0.08
72	c1cc(-c2nnc3n2CCC3)[nH]n1	i	1.81

3 records drawn at random from those above:
No.	SMILES	KCNQ2 inh	KCNQ2 inh baseline
70	O=C(NCc1ccccc1Cl)c1nnc(CS(=O)(=O)c2ccccc2)o1	i	0.11
69	COc1ccccc1NC(=O)C/C(C)=N/NC(=O)C12CC3CC(CC(C3)C1)C2	i	-1.02
66	Cc1cccc(C)c1OCC(O)CN1CCCCC1 (stereo not given)	i	-1.28

Continuation:
No.	SMILES	KCNQ2 inh	KCNQ2 inh baseline
73	O=c1nc(N2CCOCC2)ccn1Cc1ccc(Br)cc1	i	-0.01
74	COc1cc(/C=N/NC(=O)C(C)Nc2n[nH]c(=O)[nH]c2=O)cc(OC)c1O (stereo not given)	i	-2.89
75	COC(=O)c1ccc(COC(=O)CCc2nc(-c3ccccc3)c(-c3ccccc3)o2)cc1	i	-0.01
76	CCOC(=O)COn1c(=O)c(C)[n+]([O-])c2ccccc21	i	-0.44
77	CCCCN1C(=O)/C(=C/C=C2/C=Cc3ccccc3N2CC)SC1=S	i	-0.04
78	COc1ccc(NC(=O)C2CCCN(S(=O)(=O)c3cccc4nonc34)C2)cc1 (stereo not given)	i	-0.42
79	Cc1cccc(Cn2c(C)c(C)c3cc(C(=O)NCCN4CCOCC4)ccc32)c1	i	0.04
80	CC1CC(C)CN(C(=O)c2cc3ccccc3o2)C1 (stereo not given)	i	1.46
81	CCCCC(C(=O)NC1CCCC1)N(C(=O)c1snc(C(N)=O)c1N)c1ccc(OCC)cc1 (stereo not given)	i	0.54
82	COc1ccccc1NC(=S)N(Cc1ccco1)Cc1cc2cc(C)c(C)cc2[nH]c1=O	i	0.02
83	CCOC(=O)C1CCCN(C(=O)c2[nH]c3ccc(OC)cc3c2C)C1 (stereo not given)	i	1.62
84	Cc1nc(-c2ccncc2)nc(NCCNc2ncccc2C(F)(F)F)c1Cl	i	0.45
85	Cc1nc(-c2ccc(Cl)cc2)sc1C1(C)CC(c2ccccc2F)=NO1 (stereo not given)	i	-1.29
86	O=C(COC(=O)c1ccccn1)Nc1ccc2c(c1)OCO2	i	0.01
87	c1cc2cc(-c3c(-c4ccc5c(c4)OCO5)noc3-c3ccsc3)ccc2[nH]1	i	0.06
88	CC1CCCCN1Cc1ccc(-c2nnn(CC(=O)NC3CCCCC3)n2)cc1 (stereo not given)	i	2.11
89	COc1ccccc1/C=N/NC(=S)NCc1ccco1	i	-0.02
90	Cc1ccc(CNC(=O)Cc2ccc(Br)cc2)cc1	i	1.67
91	C=CCN(c1ccccc1)S(=O)(=O)c1cc2c(cc1C)NC(=O)CO2	i	-1.66
92	CCOC(=O)C1CCN(S(=O)(=O)c2ccc(NC(=O)c3ccco3)cc2)CC1	i	-0.76
93	COc1cc(CNC(C)C23CC4CC(CC(C4)C2)C3)cc(OC)c1OC (stereo not given)	i	-1.28
94	O=C1CC(Sc2ncccc2C(=O)O)C(=O)N1 (stereo not given)	i	0.04
95	COc1ccc(NC(=O)c2cc(-c3ccco3)on2)c(OC)c1	i	-1.64
96	CCOC(=O)c1ccc(N(C(=O)c2cnccn2)C(C(=O)NC2CCCCC2)c2cn(C)nc2C)cc1 (stereo not given)	i	0.96
97	COc1ccc(C(=O)Nc2nnc(S(=O)(=O)N3CCCCCC3)s2)cc1OC	i	0.51
98	COc1ccc(CC(=O)Nc2ccc(/C(C)=N\NC(=O)c3ccc(Br)o3)cc2)cc1	i	1.48
99	Cc1cc[n+](-c2[nH]c(=O)sc2/C=N/NC([S-])=Nc2ccccc2)cc1C	i	-1.41
100	Cc1ccccc1/C=N/n1c(-c2cc(-c3ccccc3)n[nH]2)n[nH]c1=S	i	-2.58
101	CC12CCC(=O)N1C(C(=O)Nc1cc(Cl)ccc1N1CCOCC1)CS2 (stereo not given)	i	0.68
102	CC(C)Oc1cccc(C(=O)C2CCCN(Cc3cnn(C(C)C)c3)C2)c1 (stereo not given)	i	-0.01
103	CCOc1ccc(CCNC(=O)COC(=O)COc2ccc(Cl)cc2)cc1OCC	i	-0.76
104	COc1ccc2c(-c3ccccc3)cc(SCC(=O)N(C)C3CCS(=O)(=O)C3)nc2c1 (stereo not given)	i	0.01
105	COc1ccc(S(=O)(=O)N(CC(=O)NC(C)C)Cc2ccccc2)cc1	i	0.93
106	COc1ccc(NC(C)C(=O)N/N=C/c2ccccc2OCc2cccc(Br)c2)cc1 (stereo not given)	i	1.04
107	CCOc1cc(-c2c(C#N)c(N)nc3c2CCCC3)ccc1O	i	0.25
108	CCOC(=O)c1sc(NCC2CCCO2)nc1C (stereo not given)	i	-0.85
109	Cc1ccc2nc(-c3ccccn3)c(NC3CCCC3)n2c1	i	-1.17
110	Cc1ccc(S(=O)(=O)/C(=C/Cl)NC(=O)c2ccccc2)cc1	i	-0.06
111	CCc1ccc(NC(=O)CSc2nc3ccsc3c(=O)n2CCCCCC(=O)O)cc1	i	1.56
112	CC(=O)N1CCCc2ccc(NS(=O)(=O)c3ccc(C)c(C)c3)cc21	i	0.58
113	COc1ccc(C(=O)N/N=C(\C)CC(=O)Nc2ccc3ccccc3c2)c(OC)c1	i	-1.66
114	COc1cc(CNCCN(C)C)ccc1OCc1c(F)cccc1Cl	i	-0.42
115	Cn1cc(S(=O)(=O)N2CCOCC2)cc1C(=O)NCc1ccccc1Cl	i	-1.88
116	Cc1cnc2c(c1)C(=O)c1ccccc1-2	i	-1.4

Screens as filed in PubChem.
